Yeast UUG start: modulators of start codon recognition fidelity in yeast | S. cerevisiae UUG-firefly luciferase reporter, luminescence/redox ratio | activity score, % at 18.7 µM | hit rate 0.13% among 350,000;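 active = replicate mean at a twofold rise or more, about +100% in these data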;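 note: firefly luciferase made from a UUG start codon reports start codon fidelity; reporter light over untreated wells divided by growth signal over untreated wells; some hits fall short of that in this replicate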
Env fusion inh: HIV envelope-mediated fusion inhibition; AID 651610; hit rate 1.1% among 360,000; HeLa-JRFL Env/CEM21 cell fusion, luciferase; inhibition, % at 12.3 µM;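 active = mean replicate inhibition score of at least 50 and every replicate individually at or above 50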;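 note: 0% = plate neutral controls and 100% = maraviroc near 300 nM; one replicate is shown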
Active calls of the source: *; & = joins results of further samples; [ ] = another dose, or the depositor's remark. An excerpt. The share of hits here may be higher or lower than overall.

Yeast UUG start,Env fusion inh,molecule
3,-5[16.7 µM],C[C@@H]1CCCCO[C@@H](CN(C)C(=O)c2ccncc2)[C@@H](C)CN([C@H](C)CO)C(=O)c2cc(NS(=O)(=O)c3ccc(Cl)cc3)ccc2O1
-5&8,-6&-7[16.7 µM],C[C@H](CO)N1C[C@H](C)[C@@H](CN(C)S(C)(=O)=O)Oc2ccc(NC(=O)Cc3ccccc3)cc2C1=O
12,3[16.7 µM],O=C(C[C@H]1C[C@@H]2c3cc(NC(=O)Nc4ccccc4F)ccc3O[C@@H]2[C@@H](CO)O1)NCC(F)(F)F
-9,-110[16.7 µM],C[C@@H]1CN([C@H](C)CO)S(=O)(=O)c2ccc(-c3ccncc3)cc2O[C@H]1CN(C)S(C)(=O)=O
9,-90[16.7 µM],C[C@@H]1CCCCO[C@@H](CN(C)C(=O)Nc2ccccc2)[C@H](C)CN([C@H](C)CO)C(=O)c2cc(NS(=O)(=O)c3cccs3)ccc2O1
7,-27[16.7 µM],COC(=O)C[C@@H]1CC[C@@H]2[C@H](COc3ccc(NC(=O)Nc4ccc(C)cc4)cc3C(=O)N2C)O1
-11,1[16.7 µM],CCCN(C)C[C@@H]1Oc2ncc(C#CC3(O)CCCC3)cc2C(=O)N([C@H](C)CO)C[C@@H]1C
-6,-6[16.7 µM],CCCN1C[C@@H](C)[C@@H](OC)CN(C)C(=O)c2ccc(NC(=O)Nc3cccc(F)c3)cc2OC[C@@H]1C
-12,10[16.7 µM],O=C(C[C@@H]1CC[C@@H]2NC[C@H](O)COC[C@H]2O1)NCCc1ccncc1
-15,-22[16.7 µM],COc1ccc(S(=O)(=O)N(C)C[C@@H]2OCCCC[C@@H](C)Oc3ccc(NC(=O)Cc4ccccc4)cc3C(=O)N([C@H](C)CO)C[C@@H]2C)cc1
11,39[16.7 µM],C[C@H](CO)N1C[C@H](C)[C@@H](CN(C)C(=O)Nc2ccc(C(F)(F)F)cc2)OCCCC[C@H](C)Oc2ccc(NS(=O)(=O)c3ccc(Cl)cc3)cc2C1=O
-22,-28[16.7 µM],C[C@H]1CN([C@@H](C)CO)C(=O)Cc2cc(NC(=O)c3ccncc3)ccc2O[C@H]1CN(C)C(=O)Nc1ccc(C(F)(F)F)cc1

Next section (two carried over from the part before).
Yeast UUG start,Env fusion inh,molecule
11,39[16.7 µM],C[C@H](CO)N1C[C@H](C)[C@@H](CN(C)C(=O)Nc2ccc(C(F)(F)F)cc2)OCCCC[C@H](C)Oc2ccc(NS(=O)(=O)c3ccc(Cl)cc3)cc2C1=O
-22,-28[16.7 µM],C[C@H]1CN([C@@H](C)CO)C(=O)Cc2cc(NC(=O)c3ccncc3)ccc2O[C@H]1CN(C)C(=O)Nc1ccc(C(F)(F)F)cc1
-3,11[16.7 µM],C[C@@H]1CCCCO[C@@H](CN(C)Cc2ccc(Cl)c(Cl)c2)[C@H](C)CN([C@H](C)CO)C(=O)c2cc(NC(=O)Nc3cccc4ccccc34)ccc2O1
-6&3,44[16.7 µM],C[C@H](CO)N1C[C@H](C)[C@@H](CN(C)S(=O)(=O)c2ccc(F)cc2)Oc2cc(Br)ccc2S1(=O)=O
-17,-8[16.7 µM],CO[C@@H]1CN(C)C(=O)c2ccc(NC(=O)C3CCC3)cc2OC[C@H](C)NC[C@@H]1C
-9,22[16.7 µM],CNC[C@@H]1Oc2ccc(NS(=O)(=O)c3c(C)noc3C)cc2C(=O)N([C@H](C)CO)C[C@H]1C
11,3[16.7 µM],C[C@@H]1CCCCO[C@@H](CN(C)C(=O)CCCN(C)C)[C@H](C)CN([C@H](C)CO)C(=O)c2cc(NC(=O)CCCN(C)C)ccc2O1
15,15[16.7 µM],C[C@H]1CCCCO[C@H](CN(C)C(=O)CCCN(C)C)[C@@H](C)CN([C@@H](C)CO)C(=O)c2cc(N(C)C)ccc2O1
-13,5[16.7 µM],C[C@@H]1CCCCO[C@@H](CN(C)C(=O)Cc2ccccc2)[C@@H](C)CN([C@H](C)CO)C(=O)c2cc(NS(=O)(=O)c3ccc(Cl)cc3)ccc2O1
-9,17[16.7 µM],C[C@H]1CN([C@@H](C)CO)C(=O)c2cccc(NS(=O)(=O)c3cn(C)cn3)c2O[C@@H]1CN(C)Cc1ccc(C(=O)O)cc1
2,-23[16.7 µM],C[C@@H]1CN([C@@H](C)CO)C(=O)c2cccc(NC(=O)C3CC3)c2O[C@@H]1CN(C)Cc1ccc(C(=O)Nc2ccccc2N)cc1
-11,-4[16.7 µM],CCCNC(=O)C[C@H]1CC[C@H]2[C@@H](COc3ccc(NC(=O)c4cc(F)cc(F)c4)cc3C(=O)N2C)O1
4,-13[16.7 µM],CC(C)(C)OC(=O)CC[C@]12N=C(c3ccc(OCCCO)cc3)O[C@H]1c1ccccc1CN(Cc1ccccc1)C2=O
-1,-8[16.7 µM],C[C@H](CO)N1C[C@H](C)[C@H](CN(C)S(=O)(=O)c2cccc(F)c2)Oc2ncc(C#Cc3cccc(F)c3)cc2C1=O

Going on with the list:
Yeast UUG start,Env fusion inh,molecule
25,-3[16.7 µM],CN(C)CC(=O)N1[C@H](C#N)[C@H](c2ccc(C#CC3CCCC3)cc2)[C@H]1CO
-5,18[16.7 µM],Cc1noc(C)c1S(=O)(=O)Nc1ccc2c(c1)C(=O)N([C@H](C)CO)C[C@@H](C)[C@@H](CN(C)S(C)(=O)=O)O2
14,7[16.7 µM],C[C@@H]1CCCCO[C@@H](CN(C)Cc2ccc(Cl)c(Cl)c2)[C@@H](C)CN([C@H](C)CO)C(=O)c2cc(NS(=O)(=O)c3cccs3)ccc2O1
-8,-29[16.7 µM],CC(C)NC(=O)Nc1cccc2c1O[C@@H](CN(C)CC1CCCCC1)[C@@H](C)CN([C@H](C)CO)C2=O
-8,-9[16.7 µM],CCCNC(=O)N1[C@H](CO)[C@H](c2ccc(C#CCN(C)C)cc2)[C@@H]1C#N
-2,27[16.7 µM],C[C@@H]1CCCCO[C@@H](CN(C)C(=O)CCCN(C)C)[C@H](C)CN([C@H](C)CO)C(=O)c2cc(NC(=O)Nc3ccc4c(c3)OCO4)ccc2O1
1,-7[16.7 µM],CN1C(=O)c2cc(NC(=O)c3cccc(F)c3)ccc2OC[C@@H]2O[C@H](CC(=O)O)CC[C@@H]21
-11,3[16.7 µM],C[C@@H](NC(=O)C[C@@H]1C[C@H]2c3cc(NC(=O)NC4CCCC4)ccc3O[C@H]2[C@H](CO)O1)c1ccccc1
-18,12[16.7 µM],O=C(C[C@@H]1C[C@@H]2c3cc(NC(=O)Nc4ccc(F)cc4)ccc3O[C@@H]2[C@H](CO)O1)NC1CCCCC1
-14,26[16.7 µM],C[C@H]1CN([C@@H](C)CO)C(=O)c2cccc(NC(=O)c3ccncc3)c2O[C@@H]1CN(C)CC1CCCCC1
6,-7[16.7 µM],COc1ccc(S(=O)(=O)Nc2ccc3c(c2)C(=O)N([C@H](C)CO)C[C@@H](C)[C@H](CN(C)Cc2ccncc2)OCCCC[C@H](C)O3)cc1
30,-7[16.7 µM],C[C@@H]1CCCCO[C@@H](CN(C)S(=O)(=O)c2ccc(F)cc2)[C@@H](C)CN([C@@H](C)CO)C(=O)c2cc(N(C)C)ccc2O1

Following part.
Yeast UUG start,Env fusion inh,molecule
8,-15[16.7 µM],COCC#Cc1ccc2c(c1)O[C@@H](CN(C)C(=O)CC1CC1)[C@H](C)CN([C@H](C)CO)S2(=O)=O
-6,-1[16.7 µM],O=C(C[C@@H]1C[C@H]2c3cc(NC(=O)CC4CC4)ccc3O[C@H]2[C@H](CO)O1)NCc1ccccc1
7,20[16.7 µM],COc1ccc(S(=O)(=O)Nc2ccc3c(c2)C(=O)N([C@H](C)CO)C[C@H](C)[C@@H](CN(C)S(C)(=O)=O)OCCCC[C@H](C)O3)cc1
-5,11[16.7 µM],C[C@H]1CN([C@@H](C)CO)C(=O)Cc2cc(NC(=O)Nc3ccc4c(c3)OCO4)ccc2O[C@H]1CN(C)Cc1ccc(-c2ccccc2)cc1
1,9[16.7 µM],Cc1ccc(S(=O)(=O)NCC[C@@H]2CC[C@H](NC(=O)CCN3CCCCC3)[C@@H](CO)O2)cc1
-19,16[16.7 µM],C[C@H]1CN([C@@H](C)CO)C(=O)Cc2cc(NC(=O)C3CC3)ccc2O[C@@H]1CN(C)Cc1ccc2c(c1)OCO2
5,7[16.7 µM],O=C(C[C@@H]1CC[C@@H]2NC[C@@H](O)COC[C@H]2O1)Nc1ccc(-c2ccccc2)cc1
-21,2[16.7 µM],C[C@@H]1CN([C@H](C)CO)C(=O)c2cc(NC(=O)Nc3ccc(C(F)(F)F)cc3)ccc2O[C@@H](C)CCCCO[C@H]1CN(C)Cc1ccc(Cl)c(Cl)c1
6,20[16.7 µM],C[C@@H]1CN([C@H](C)CO)C(=O)c2cc(C#CC3(O)CCCC3)cnc2O[C@H]1CN(C)C(=O)Cc1ccccc1
1,-23[16.7 µM],C[C@H](O)C#Cc1ccc2c(c1)O[C@H](CN(C)C(=O)c1ccncc1)[C@@H](C)CN([C@H](C)CO)S2(=O)=O
2,11[16.7 µM],CC(C)NC(=O)N(C)C[C@@H]1Oc2c(NC(=O)Nc3ccc4c(c3)OCO4)cccc2C(=O)N([C@H](C)CO)C[C@@H]1C
3,25[16.7 µM],O=C(C[C@@H]1CC[C@@H]2[C@H](COC[C@H](O)CN2Cc2ccc3c(c2)OCO3)O1)Nc1ccc(-c2ccccc2)cc1

(more compounds)
Yeast UUG start,Env fusion inh,molecule
9,-6[16.7 µM],Cc1noc(C)c1NC(=O)N(C)C[C@H]1Oc2c(NC(=O)NC3CCCCC3)cccc2C(=O)N([C@H](C)CO)C[C@@H]1C
4,-7,O=C1OCCN1C(=O)[C@H]1[C@H](c2ccc([N+](=O)[O-])cc2)C(c2ccc(F)cc2)=NN1c1ccc(Br)cc1
-30,-34[16.7 µM],CN(C)CCCNC(=O)C[C@@H]1CC[C@H](NC(=O)Cc2cccnc2)[C@@H](CO)O1
-2,7[16.7 µM],Cc1ccc(S(=O)(=O)Nc2ccc3c(c2)C(=O)N([C@H](C)CO)C[C@@H](C)[C@H](CN(C)S(=O)(=O)c2ccc(Cl)cc2)OCCCC[C@@H](C)O3)cc1
50,-25[16.7 µM],C[C@@H]1CN([C@H](C)CO)C(=O)c2cc(NC(=O)NC3CCCCC3)ccc2O[C@@H](C)CCCCO[C@@H]1CN(C)C(=O)CCC(F)(F)F
-8,-5[16.7 µM],C[C@@H]1CN([C@@H](C)CO)C(=O)c2cc(NC(=O)c3ccncc3)ccc2O[C@@H](C)CCCCO[C@H]1CN(C)C(=O)CCCN(C)C
-5,-21[16.7 µM],CS(=O)(=O)Nc1ccc2c(c1)[C@H]1C[C@@H](CC(=O)NCc3ccccc3)O[C@@H](CO)[C@H]1O2
7,17[16.7 µM],Cc1noc(C)c1NC(=O)N(C)C[C@H]1Oc2c(NC(=O)Nc3ccc(F)cc3)cccc2C(=O)N([C@H](C)CO)C[C@H]1C
3,56*[16.7 µM],Cc1ccccc1-c1ccc2c(c1)O[C@H](CN(C)C(=O)Nc1ccc(C(F)(F)F)cc1)[C@H](C)CN([C@@H](C)CO)S2(=O)=O
-7,18[16.7 µM],C[C@@H]1CN([C@H](C)CO)C(=O)Cc2cc(NC(=O)Nc3ccc(C(F)(F)F)cc3)ccc2O[C@@H]1CN(C)Cc1ccc(Cl)c(Cl)c1
-9,9[16.7 µM],O=C(C[C@H]1C[C@@H]2c3cc(NC(=O)CC4CC4)ccc3O[C@@H]2[C@H](CO)O1)NCc1ccc(-c2ccccc2)cc1
10,-2[16.7 µM],COc1ccccc1-c1ccc2c(c1)O[C@@H](CN(C)C(=O)c1ccccc1)[C@H](C)CN([C@H](C)CO)S2(=O)=O

6 successive records already listed:
Yeast UUG start,Env fusion inh,molecule
-5,-21[16.7 µM],CS(=O)(=O)Nc1ccc2c(c1)[C@H]1C[C@@H](CC(=O)NCc3ccccc3)O[C@@H](CO)[C@H]1O2
7,17[16.7 µM],Cc1noc(C)c1NC(=O)N(C)C[C@H]1Oc2c(NC(=O)Nc3ccc(F)cc3)cccc2C(=O)N([C@H](C)CO)C[C@H]1C
3,56*[16.7 µM],Cc1ccccc1-c1ccc2c(c1)O[C@H](CN(C)C(=O)Nc1ccc(C(F)(F)F)cc1)[C@H](C)CN([C@@H](C)CO)S2(=O)=O
-7,18[16.7 µM],C[C@@H]1CN([C@H](C)CO)C(=O)Cc2cc(NC(=O)Nc3ccc(C(F)(F)F)cc3)ccc2O[C@@H]1CN(C)Cc1ccc(Cl)c(Cl)c1
-9,9[16.7 µM],O=C(C[C@H]1C[C@@H]2c3cc(NC(=O)CC4CC4)ccc3O[C@@H]2[C@H](CO)O1)NCc1ccc(-c2ccccc2)cc1
10,-2[16.7 µM],COc1ccccc1-c1ccc2c(c1)O[C@@H](CN(C)C(=O)c1ccccc1)[C@H](C)CN([C@H](C)CO)S2(=O)=O

(more compounds)
Yeast UUG start,Env fusion inh,molecule
3,-61[16.7 µM],C[C@@H]1CN([C@H](C)CO)C(=O)c2cccc(NC(=O)NC3CCCCC3)c2O[C@@H]1CN(C)Cc1ccc(Cl)c(Cl)c1
20,-5[16.7 µM],CNC[C@@H]1OCCCC[C@@H](C)Oc2ccc(NS(=O)(=O)c3ccc(Cl)cc3)cc2C(=O)N([C@H](C)CO)C[C@H]1C
4,-15[16.7 µM],C[C@@H]1CN([C@@H](C)CO)C(=O)c2cc(C#CCN(C)C)cnc2O[C@@H]1CN(C)C(=O)CCN1CCCCC1
4,-35[16.7 µM],C[C@@H]1CN([C@@H](C)CO)C(=O)c2cccc(NC(=O)C3CCCCC3)c2O[C@@H]1CN(C)S(C)(=O)=O
-9,44[16.7 µM],COc1cccc(S(=O)(=O)N(C)C[C@@H]2Oc3cc(C#CCC(C)C)ccc3S(=O)(=O)N([C@@H](C)CO)C[C@H]2C)c1
-2,-2[16.7 µM],O=C(Nc1ccc2c(c1)[C@@H]1C[C@@H](CC(=O)N3CCOCC3)O[C@@H](CO)[C@@H]1O2)c1ccc2c(c1)OCO2
9,-7[16.7 µM],Cc1noc(C)c1S(=O)(=O)Nc1ccc2c(c1)C(=O)N([C@@H](C)CO)C[C@H](C)[C@@H](CN(C)C(=O)NC1CCCCC1)OCCCC[C@@H](C)O2
-4,5[16.7 µM],O=C(N[C@@H]1CC[C@@H](CC(=O)N2CCOCC2)O[C@H]1CO)c1cccc(F)c1
